VDR inh = vitamin D3 receptor (human) inhibition; P11473; VDR-SRC2-3 peptide fluorescence polarization, 2 h; Potency, µM, without a hit: max response, negative = inhibition, hits mostly inhibitors; actives 0.93% (n = 400,000); AID 504847; active = well fitted inhibition curve with a large enough effect; inconclusive = small, poorly fitted or top-dose-only effect, or another doubt; inactive = no such curve, though single readings can be large or run the other way; note: series mostly up to about 120 µM
Target sequence (P11473 whole entry, looked up): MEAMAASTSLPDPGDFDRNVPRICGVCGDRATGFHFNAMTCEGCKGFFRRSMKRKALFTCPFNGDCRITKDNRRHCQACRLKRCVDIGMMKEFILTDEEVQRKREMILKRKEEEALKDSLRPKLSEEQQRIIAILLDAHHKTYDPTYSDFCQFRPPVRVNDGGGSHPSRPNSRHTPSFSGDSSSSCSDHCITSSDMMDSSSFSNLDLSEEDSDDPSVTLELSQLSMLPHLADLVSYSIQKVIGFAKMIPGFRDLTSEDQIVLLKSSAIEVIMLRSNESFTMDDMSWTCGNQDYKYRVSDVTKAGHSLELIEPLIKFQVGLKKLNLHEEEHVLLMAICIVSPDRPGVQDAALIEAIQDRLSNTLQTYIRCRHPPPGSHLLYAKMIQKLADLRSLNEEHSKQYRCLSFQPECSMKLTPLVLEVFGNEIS
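Reagent solutions, kept cold and dark, are dispensed first; compounds are then pinned in at 23 nl, plates briefly spun, and incubated 2 h at ambient temperature. Inhibition of VDR–SRC2-3 peptide binding is read by fluorescence polarization.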
* hit, by the source's call; ? = inconclusive; & = joins results of further samples. % is set by controls: 0 for no effect and ±100 for the full control effect; potency is the fitted concentration of half-maximal effect. Only part of the results is shown; the hit share may differ from the screen's.

A first look:
VDR inh | structure
1% | COc1ccc(N2CCN(C(=O)CSc3nc(-c4ccc(C(C)C)cc4)no3)CC2)cc1
? | O=C(c1cc(-c2ccco2)nc2ccccc12)N1CCCC(C(F)(F)F)C1 (stereo not drawn)
-24% | COc1cccc(C=C2SC(=S)NC2=O)c1
-6% | CN1CCN(c2ncc3nc(-c4cn(C)c5ccccc45)c(=O)n(C)c3n2)CC1
12% | Cc1ccc(OCCOc2cccc(/C=N/NC(N)=O)c2)cc1
0% | CSc1nnc(N(CCC#N)CCC#N)s1
-4% | CCOC(=O)c1cccc(NC(=O)CN(c2ccc(OC)cc2)S(=O)(=O)c2c(C)noc2C)c1
-4% | CC(=O)OCC(NC(=O)C(CCCCNC(=O)OCc1ccccc1)NC(=O)OC(C)(C)C)C1OC(n2cc(C)c(=O)[nH]c2=O)C(OC(C)=O)C1OC(C)=O (stereo not drawn)
4% | O=C(O)COc1ccc2ccccc2c1
1% | O=C(Nc1ccccc1)c1ccccc1OCc1ccc(S(=O)(=O)N2CCOCC2)cc1
-21% | COc1cc(O)sc1C=Nc1ccc(Cl)cc1Cl
10% | CC(C)CNC(=O)COC(=O)CCC(=O)c1cccs1
0% | CCC1c2ccccc2C(=O)C1C(N)=O (stereo not drawn)
-7% | CCC(=O)C1=C(c2ccccc2)N(C(=O)CC)n2c(nnc2-c2ccccc2)S1
? | C=CCNC(=S)Nc1cccc([N+](=O)[O-])c1
-4% | CCn1nnc(NC(=O)CSc2ccc(Cl)cc2)n1
-14% | COc1cccc(CNC(=O)COC(=O)c2cccc(S(=O)(=O)N3CCN(C(C)=O)CC3)c2)c1
7% | Cc1cccc(Cn2c(C)c(CNC3CCCCC3)c(C(=O)O)c2C)c1
-15% | Cc1ccc(C(=O)Oc2cccc(-n3cnnn3)c2)cc1

Main list, repeating the preview:
VDR inh | structure
1% | COc1ccc(N2CCN(C(=O)CSc3nc(-c4ccc(C(C)C)cc4)no3)CC2)cc1
? | O=C(c1cc(-c2ccco2)nc2ccccc12)N1CCCC(C(F)(F)F)C1 (stereo not drawn)
-24% | COc1cccc(C=C2SC(=S)NC2=O)c1
-6% | CN1CCN(c2ncc3nc(-c4cn(C)c5ccccc45)c(=O)n(C)c3n2)CC1
12% | Cc1ccc(OCCOc2cccc(/C=N/NC(N)=O)c2)cc1
0% | CSc1nnc(N(CCC#N)CCC#N)s1
-4% | CCOC(=O)c1cccc(NC(=O)CN(c2ccc(OC)cc2)S(=O)(=O)c2c(C)noc2C)c1
-4% | CC(=O)OCC(NC(=O)C(CCCCNC(=O)OCc1ccccc1)NC(=O)OC(C)(C)C)C1OC(n2cc(C)c(=O)[nH]c2=O)C(OC(C)=O)C1OC(C)=O (stereo not drawn)
4% | O=C(O)COc1ccc2ccccc2c1
1% | O=C(Nc1ccccc1)c1ccccc1OCc1ccc(S(=O)(=O)N2CCOCC2)cc1
-21% | COc1cc(O)sc1C=Nc1ccc(Cl)cc1Cl
10% | CC(C)CNC(=O)COC(=O)CCC(=O)c1cccs1
0% | CCC1c2ccccc2C(=O)C1C(N)=O (stereo not drawn)
-7% | CCC(=O)C1=C(c2ccccc2)N(C(=O)CC)n2c(nnc2-c2ccccc2)S1
? | C=CCNC(=S)Nc1cccc([N+](=O)[O-])c1
-4% | CCn1nnc(NC(=O)CSc2ccc(Cl)cc2)n1
-14% | COc1cccc(CNC(=O)COC(=O)c2cccc(S(=O)(=O)N3CCN(C(C)=O)CC3)c2)c1
7% | Cc1cccc(Cn2c(C)c(CNC3CCCCC3)c(C(=O)O)c2C)c1
-15% | Cc1ccc(C(=O)Oc2cccc(-n3cnnn3)c2)cc1
11% | O=C(O)c1ccc(S(=O)(=O)N(Cc2ccccc2)C2CCCCC2)cc1
-9% | Cc1[nH]n(C)c(=O)c1C(=O)c1c(-c2c(Cl)cccc2Cl)noc1C
3% | Nn1c(SCC(=O)NC2CCS(=O)(=O)C2)nnc1-c1cccs1 (stereo not drawn)
2% | CCN(CC)S(=O)(=O)c1ccc(C(=O)OCC(=O)NC2CCCC2)cc1
7% | Cc1cc(C)cc(NC(=O)CSc2nc3c(oc4ccccc43)c(=O)n2-c2ccccc2F)c1
-15% | CCCNC(=O)N(C)c1nncnc1C(=O)NC
-13% | CCC(=O)NCCc1nc2cc(NC(=O)c3ccccc3Cl)ccc2n1C
6% | CCc1ccc(NC(=O)Cn2c(-c3cncs3)nc3ccccc32)cc1
17% | CCOc1ccc(S(=O)(=O)NCCc2csc3nc(-c4ccc(F)cc4)nn23)cc1
-13% | Cc1cc(C)c(NC(=O)Cn2c(=O)n(CC3CCCO3)c(=O)c3ccccc32)c(C)c1 (stereo not drawn)
-1% | COc1ccc(N2CC(C(=O)NCc3ccccc3)CC2=O)cc1 (stereo not drawn)
-3% | Cc1noc(C)c1CN1C(=O)c2ccc([N+](=O)[O-])cc2C1=O
0% | O=C(Nn1c(-c2ccccc2)nc2ccccc2c1=O)c1ccc([N+](=O)[O-])cc1
-8% | O=C(N/N=C/c1ccncc1)c1ccccn1
-14% | Cc1ccc(OC(=O)c2ccncc2)c(C)c1
-3% | Cc1cc(-c2nnc(SCC(=O)Nc3ccc(Cl)cn3)n2N)n[nH]1
4% | COCCNC(=O)C(=O)N/N=C/c1cccs1
2% | NC(=O)c1ccc(NC(=O)COC(=O)CCC2CCCCC2)cc1
-10% | Cc1cc2oc(C(=O)Nc3cccnc3)c(C)c2cc1C
-18% | CCc1n[nH]c(=S)n1/N=C/c1cc(OC)cc([N+](=O)[O-])c1O
-19% | CC(Sc1nc(-c2ccccc2)cc(C(F)(F)F)n1)C(=O)Nc1ccc2c(c1)OCO2 (stereo not drawn)
-6% | Cc1ccccc1NC(=S)NCc1ccc2[nH]c3c(c2c1)CCCC3
26% | Cc1ccc(C(=O)OCC(=O)Nc2ccc(Cl)cn2)s1
-1% | CCOC(=O)c1cc(-c2ccccc2C)nn1CC1CC(c2ccc(OC)cc2)=NO1 (stereo not drawn)
? | CC(C)N1C(=O)/C(=C\c2nc3ccccc3c(=O)[nH]2)c2ccccc21
-9% | CC(=O)N(CCCN(C)C)CCC(C)CCC=C(C)C (stereo not drawn)
-5% | COc1ccccc1N1CCN(C(=O)c2ccc(CSc3ccccc3)cc2)CC1
15% | CC(=O)N1CCN(C(=O)COc2ccccc2C(=O)Nc2ccccc2)CC1
-7% | COc1ccc(-n2c(C)cc(C)c(C(C)=O)c2=S)cc1
? | O=CN1CCc2c([nH]c3ccccc23)C1c1cccc2cccnc12 (stereo not drawn)
11% | CCOC(=O)N1CCN(C(=O)CCCn2nc(C)c3sc4ccccc4c3c2=O)CC1
3% | O=C(NC12CC3CC(CC(C3)C1)C2)c1ccc([N+](=O)[O-])o1
5% | COc1ccc(N(C(=O)COc2ccccc2OC)S(=O)(=O)c2ccc(C)cc2)cc1
-4% | N#C/C(=C/c1ccccc1)C(=O)OCC(=O)Nc1ccccc1[N+](=O)[O-]
7% | COC(=O)c1cccc(NC(=O)N(C)CCc2c(C)nn(C)c2C)c1
-2% | O=C(CC(=O)c1ccccc1)Nc1ccc(Cl)cc1
-5% | O=C(O)CNC(=O)c1ccccc1Br
5% | O=C(CN1C(=O)NC2(CCc3ccccc3C2)C1=O)NCC(F)(F)F (stereo not drawn)
-2% | CN(C)C(CNC(=O)c1cc(S(=O)(=O)N2CCOCC2)ccc1F)c1cccs1 (stereo not drawn)
-4% | CC1=C(C(=O)Nc2cc(-c3cccc(F)c3)[nH]n2)C2(CCCCC2)OC1=O
-18% | COc1cccc(CNC(=O)CSc2nnc3c(n2)[nH]c2ccc(OC)cc23)c1

The list goes on.
VDR inh | structure
-9% | O=C(Cn1c(NCCCO)nc2ccccc21)c1ccco1
7% | Cc1ccc(-n2ncc3c2CC(C)(C)CC3NC(=O)CCc2ccc(=O)[nH]n2)cc1 (stereo not drawn)
13% | CCCNC(=O)N1CCCC(C(N)=O)C1 (stereo not drawn)
-6% | COc1ccc(-c2nc(SCC(=O)NC3CCCC3)c(-c3ccccc3)[nH]2)cc1OC
-12% | COc1ccc(CNC(=O)CN(c2cccc([N+](=O)[O-])c2)S(C)(=O)=O)cc1
9% | COc1cccc(N2C(N)=NC(N)=NC2(C)C)c1
-6% | O=C(NCCc1c[nH]c2ccccc12)c1ccccc1
10% | COC(=O)C1=C(C)NC(=O)C1(NC(=O)CN1CCCC1=O)C(F)(F)F (stereo not drawn)
-15% | C[C@H]1CN([C@@H](C)CO)C(=O)c2cccc(NS(=O)(=O)c3ccc(F)cc3)c2O[C@H]1CN(C)S(=O)(=O)c1cn(C)cn1
-18% | Nc1cc(=O)[nH]c(SCC(=O)NNC(=O)c2ccccc2)n1
-6% | CCCCN1CNC(=S)N(c2ccccc2OCC)C1
0% | Cc1ccc(NC(=O)c2cc(-c3ccccc3O)n[nH]2)cc1Cl
-9% | CCn1c(COC(=O)CNC(=O)c2cc(OC)c(OC)c(OC)c2)nc2cc(S(=O)(=O)N(C)C)ccc21
-6% | COc1ccc(NC(=O)CSc2nc3ccccc3c(=O)n2C)cc1
0% | CN(C)c1oc(/C=C/c2ccccc2)nc1C#N
-2% | Cn1cc(/C=C(\C#N)C(=O)Nc2cccc([N+](=O)[O-])c2)c2ccccc21
-2% | C/C=C(\C)C(=O)NCCN1C2=NC[C@H](Cc3ccc(O)cc3)N2C[C@@H]1Cc1ccc(OC)cc1
2% | CCCC12CN3CC(C)(CN(C1)C3c1cn(C)c3ccccc13)C2=O (stereo not drawn)
2% | O=C(CCC1CCCN(Cc2cccc(Cl)c2)C1)NCc1ccccc1F (stereo not drawn)
-10% | O=c1[nH]c2ccc(NC(=S)Nc3ccc(Cl)cc3)cc2[nH]1
5% | COc1ccccc1NC(=O)NCCN1CCNC1=O
-18% | O=C(/C=C/c1ccc(F)cc1)NC(=S)Nc1ccccc1C(=O)NC1CCCCC1
3% | CCC(CC)C(=O)Nc1ccc(C)c(O)c1
5% | CCNC(=S)N(Cc1cccs1)Cc1cc2cc(OCC)ccc2[nH]c1=O
5% | CN1CCN(S(=O)(=O)c2ccc(N3CCN(C(c4ccccc4)c4ccccc4)CC3)nc2)CC1
12% | CC1=C(C#N)C(/C=N/OCc2ccc(Cl)cc2)CC(=O)N1 (stereo not drawn)
-21% | COc1ccccc1N1CCN(CC(=O)c2c[nH]c3ccccc23)CC1
-7% | COc1ccc(C(C(=O)NCC2CCCO2)N(C(=O)c2snc(C(N)=O)c2N)c2ccccc2C)cc1OC (stereo not drawn)
-6% | COc1ccc(/C=C2/C(=N)N3C(=NC2=O)Sc2cc(S(C)(=O)=O)ccc23)cc1OC
-5%&21% | COc1ccc(Cl)cc1NS(=O)(=O)c1c(C)[nH]c(=O)[nH]c1=O
24% | NC(=O)c1cc2cc(Br)ccc2oc1=NCc1ccccc1
-12% | O=C(Nc1ccc(F)cc1)c1cccc2ccccc12
2% | CNC(=S)N1N=C(c2cccs2)CC1c1ccc(OC)cc1 (stereo not drawn)
11% | CCCSc1nc2sc3c(c2c(=O)[nH]1)CC(C)CC3 (stereo not drawn)
1% | COc1cc(C2C(C(=O)c3cccs3)=C(O)C(=O)N2CCN2CCOCC2)ccc1OCCC(C)C (stereo not drawn)
3% | O=C1Nc2ccc(S(=O)(=O)NCCC3=CCCCC3)c3cccc1c23
10% | CCNc1nc(NC(C)C)nc(Oc2ccc(OCCOc3ccc(C)cc3)nn2)n1
-10% | CCCCC#Cc1ccc2c(c1)COc1c3ccccc3nn1-2
17% | Cc1ccc2[nH]c(CSc3nnc(NC(=O)c4ccccc4F)s3)cc(=O)c2c1
0% | O=C(Nc1cccnc1)c1ccc([N+](=O)[O-])cc1Cl
21% | CCOC(=O)C1CCCN(S(=O)(=O)CCNC(=O)c2ccc(F)cc2)C1 (stereo not drawn)
-2% | CN(CC(=O)Nc1ccccc1Cl)C(=O)COC(=O)c1ccc(S(=O)(=O)C(F)F)cc1
5% | CCN(C(=O)CSc1nnc(Cc2ccccc2F)n1N)C1CCS(=O)(=O)C1 (stereo not drawn)
-12% | COc1ccc(C2CC(=O)c3c([nH]c(C(=O)OC4CCCCCC4)c3C)C2)cc1 (stereo not drawn)
-8% | Cc1c(NC(=O)N(C)C)c(=O)n(-c2ccccc2)n1C
-13% | CCNC(=S)N(Cc1cc2cc(C)cc(C)c2[nH]c1=O)C1CCCC1
-7% | CCOc1cc(-c2sc(Nc3ccccc3)n[n+]2C)ccc1OC
-17% | O=S(=O)(c1ccc(F)c(F)c1)N1CCN(CCc2ccccc2)CC1
8% | CCOc1ccc(CN2CCNC(=O)C2CC(=O)O)cc1 (stereo not drawn)
1% | CC(C)Cn1cc(NC(=O)Nc2cccc(C(F)(F)F)c2)c2ccccc2c1=O
-5% | CN1C(=O)CC(N2CCC(C(N)=O)CC2)C1=O (stereo not drawn)
12% | CCOc1ccccc1N(CC(=O)N1CCCCCC1)S(C)(=O)=O
-7% | COc1cccc(NC(=O)C(c2ccccc2)N2CCN(CC(=O)N3CCOCC3)CC2)c1 (stereo not drawn)
4% | O=C(NCCNC(=O)c1cc(OCC(F)(F)F)ccc1OCC(F)(F)F)Nc1ccccc1
-24% | COCCCN1C(=O)c2[nH]nc(-c3ccccc3O)c2C1c1cccc(Cl)c1 (stereo not drawn)
4.5µM* | CN1C/C(=C/c2ccc(B(O)O)cc2)C(=O)/C(=C/c2ccc(B(O)O)cc2)C1
10% | CC(CCc1ccccc1)NCC(O)COc1ccccc1 (stereo not drawn)
-1% | Cc1ccccc1-c1nc(CS(=O)(=O)CC(=O)NCc2ccccc2)c(C)o1
3% | CC(=O)c1ccc(S(=O)(=O)Nc2ccccc2C(=O)NC2CC2)cc1
-10% | CCOc1ccccc1C(=O)Nc1ccc2c(c1)C(=O)NC2=O
